KCNQ2 block: KCNQ2 potassium channel inhibitors, primary screen, cell-based, CHO-K1, FluxOR thallium flux, B-score (AID 2156); 310,000 compounds, 1.1% hits; B-score at 10 µM; 20 min; active compounds read low; only compounds with negative scores are shown here; some inactives read as strong as hits; O88943;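 active = fluorescence ratio B-score at most minus 3 library SDs, with starting brightness B-score within 2 library SDs, cut at about -5.5 in these data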
Target sequence (O88943 whole entry, looked up): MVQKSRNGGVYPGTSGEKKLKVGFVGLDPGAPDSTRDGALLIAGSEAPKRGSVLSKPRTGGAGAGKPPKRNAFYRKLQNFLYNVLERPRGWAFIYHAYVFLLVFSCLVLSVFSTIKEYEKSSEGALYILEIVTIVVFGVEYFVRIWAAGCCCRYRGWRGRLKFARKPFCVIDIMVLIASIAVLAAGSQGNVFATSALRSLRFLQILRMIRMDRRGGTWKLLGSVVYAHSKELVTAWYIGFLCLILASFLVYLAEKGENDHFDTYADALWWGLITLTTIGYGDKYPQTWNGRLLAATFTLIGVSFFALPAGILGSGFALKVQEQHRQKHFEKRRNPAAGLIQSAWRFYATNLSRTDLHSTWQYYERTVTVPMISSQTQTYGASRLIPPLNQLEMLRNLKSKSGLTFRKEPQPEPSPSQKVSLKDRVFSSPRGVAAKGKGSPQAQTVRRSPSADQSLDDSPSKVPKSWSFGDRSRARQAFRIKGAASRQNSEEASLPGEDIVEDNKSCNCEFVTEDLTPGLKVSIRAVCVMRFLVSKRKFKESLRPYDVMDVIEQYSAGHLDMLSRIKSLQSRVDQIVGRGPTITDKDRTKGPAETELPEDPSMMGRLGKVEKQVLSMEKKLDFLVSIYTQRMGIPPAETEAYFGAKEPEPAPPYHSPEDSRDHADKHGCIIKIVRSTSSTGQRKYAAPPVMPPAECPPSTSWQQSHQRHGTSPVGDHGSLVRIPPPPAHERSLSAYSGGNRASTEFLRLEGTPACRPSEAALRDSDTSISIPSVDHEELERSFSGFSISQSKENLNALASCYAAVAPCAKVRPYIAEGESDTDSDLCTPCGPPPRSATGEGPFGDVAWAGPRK
KCNQ2 block baseline: recorded beside KCNQ2 block, whose call it bears; B-score; measured here: initial fluorescence intensity artifact check;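 brightness before thallium and not channel activity; 0 = typical well and far values either way flag optical interference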
Active calls of the source: *; i = inactive. A portion of the library, so the mix of outcomes need not match the whole.

KCNQ2 block,KCNQ2 block baseline,structure
i,0.2,Cc1nn(Cc2cccc(C(=O)Nc3ccn(Cc4c(F)c(F)cc(F)c4F)n3)c2)c(C)c1[N+](=O)[O-]
i,-0.03,CCOC(=O)N1CCC(NC(=O)c2ccc3c(c2)N(CC)CCS3)CC1
i,0.13,CCSc1nc2cc(OC)c(OC)cc2c(=O)n1CC
i,0.01,Cc1ccc2c(C)c(C(=O)N3CCN(c4ccncc4)CC3)oc2c1C
i,0.55,Cc1c[n+](CC(=O)c2ccccc2)c(C)cn1
i,1.9,Cc1cccc(-n2c(=O)c(C#N)cc3c(=O)n4ccccc4nc32)c1
i,0.01,CCOc1ccccc1NC(=O)C1CCCN(c2c(CC)c(C)nc3ncnn23)C1 (stereo not drawn)
i,0.46,O=C(CCN1C(=O)S/C(=C\c2ccccc2)C1=O)Nc1ccc(O)cc1C(=O)O
i,0.53,c1coc(CNC2CCCCC2)c1
i,-0.01,O=C(CSc1nc2ccsc2c(=O)n1NC(=O)c1ccccc1)Nc1nccs1
i,-3.3,Cc1onc(-c2ccccc2Cl)c1C(=O)Nc1nnc(Cc2ccc(Cl)cc2)s1
i,0.69,Cc1cc(=O)oc(C)c1C(=O)N1CCN(C)CC1
i,0.55,O=C(C[n+]1ccc(C(=O)N/N=C/c2ccc(O)cc2)cc1)c1ccccc1
i,-0.95,Clc1ccc(-c2csc(N3CCCCCC3)n2)cc1
i,-0.9,COc1ccc(NC(=O)C2CCC(CNc3c(N4CCCCC4)c(=O)c3=O)CC2)c(OC)c1 (stereo not drawn)
i,0.77,Nc1c2c(nc3ccccc13)CCCC2=O
i,0.69,COCCCN(CCC#N)C(=O)c1c(-c2c(Cl)cccc2Cl)noc1C
i,1.7,COc1cc(C2Nc3ccc4ccccc4c3C3=C2C(=O)CC(C)(C)C3)ccc1OCC(=O)O (stereo not drawn)
i,1.1,CCC(C)C(=O)Nc1nc(C)c(-c2csc(Nc3ccccc3OC)n2)s1 (stereo not drawn)
i,2,CC(C)c1ccc(S(=O)(=O)N2CCN(C(=S)NCc3ccco3)CC2)cc1
i,-0.66,CC#CC(=O)N1CCC(C(=O)Nc2ccc(Oc3ccccc3)nc2)CC1
i,0.51,COC(=O)c1ccc(-n2c(C)nc(=O)c(-c3ccccc3)c2C)cc1
i,27,CN1C2CCC1/C(=C/c1cccn1C)C(=O)/C2=C\c1cccn1C
i,3,COc1cccc(C(=O)N(C)C(C)c2nc3ccccc3s2)c1 (stereo not drawn)
i,-2,O=C(NCc1ccco1)[C@@H]1CSC2c3ccccc3C(=O)N21 (stereo partly drawn)
i,-1.4,COc1ccccc1C(=O)N/C(=C\c1ccccc1)C(=O)NC(Cc1ccccc1)C(=O)O (stereo not drawn)
i,-0.39,O=C(CN1C(=O)C2C3C=CC(C3)C2C1=O)Nc1ccc(S(=O)(=O)Nc2nccs2)cc1 (stereo not drawn)
i,1.7,COc1cc(C(=O)OCC(=O)N2c3ccccc3NC(=O)C2(C)C)ccc1OCC(C)C
i,0.05,Cc1ccc(NC(=O)CN(C)Cc2ccc(Cl)cc2)cc1
i,-2.2,Cc1c2cn[nH]c(=O)c2c(C)n1-c1ccccc1
i,-0.49,c1ccc(-c2cc(-c3ccncc3)nc3ccc4ccccc4c23)cc1
i,1.4,CC/C(=N\NC(=O)CSCc1ccc(Cl)cc1)c1ccc2c(c1)OCCO2
i,-0.05,CCOc1cc(/C=N/NC(=O)c2ccc(N(C)S(=O)(=O)c3ccccc3)cc2)ccc1OC
i,0.13,CCC(=O)N1CCc2cc(Br)cc(S(=O)(=O)N3CCC(C(=O)NC(C)(C)C)CC3)c21
i,0.39,COc1ccc(CN(C)C(=O)c2cc(-c3ccc(C)cc3C)nc3ccccc23)c(OC)c1OC
i,-2.8,Cc1cccc2cc(CN(Cc3cccs3)Cc3nnnn3Cc3ccccc3)c(=O)[nH]c12
i,-1.8,CSCC[C@H](NC(=O)C1CCC(CNC(=O)[C@@H]2CCCN2C(=O)OC(C)(C)C)CC1)C(=O)O (stereo partly drawn)
i,0.35,Cc1ccc(Cl)cc1N1CCN(C(=O)Cn2ccc3ccccc3c2=O)CC1
i,-1.7,COc1ccc(C2CC(c3ccccc3O)=NN2c2ccccc2)cc1 (stereo not drawn)
i,0.33,O=C(CCCN=C1NS(=O)(=O)c2ccccc21)OCc1cc([N+](=O)[O-])cc2c1OCOC2
i,0.75,COc1c(N2CCN(C(=S)NCc3ccccc3)C(C)C2)c(F)cc2c(=O)c(C(=O)O)cn(C3CC3)c12 (stereo not drawn)
i,-0.39,NCCOc1cnn(-c2ccccc2Cl)c(=O)c1Cl
i,1.4,Brc1cccc(Cn2c(-c3cncs3)nc3ccccc32)c1
i,1.3,COc1ccccc1N(CC(=O)NC(C)(C)C)C(=O)Cn1nnc(-c2ccc(C)o2)n1
i,3.7,COc1ccc(S(=O)(=O)N2CCN(Cc3cccc(Cl)c3)CC2)cc1
i,0.7,CC(NS(=O)(=O)c1cccc(Cl)c1)C(=O)N(C)C1CCN(C)CC1 (stereo not drawn)
i,0.15,Cc1ccc(S(=O)(=O)N2CCC(=O)N(CCOCc3ccccc3C)CC2)cc1
i,0.03,O=C1c2oc3ccc(F)cc3c(=O)c2C(c2ccc(F)cc2)N1CCCN1CCOCC1 (stereo not drawn)

Single records (already shown):
COc1c(N2CCN(C(=S)NCc3ccccc3)C(C)C2)c(F)cc2c(=O)c(C(=O)O)cn(C3CC3)c12 (stereo not drawn) is entered as KCNQ2 block: i; KCNQ2 block baseline: 0.75
Cc1ccc(Cl)cc1N1CCN(C(=O)Cn2ccc3ccccc3c2=O)CC1 is entered as KCNQ2 block: i; KCNQ2 block baseline: 0.35

The list goes on.
KCNQ2 block,KCNQ2 block baseline,structure
i,0.25,CCN(CC(=O)Nc1c(F)cccc1F)C(=O)c1cc(C)nc2ccccc12
i,-0.22,COc1ccc(Oc2ccc(-c3ccn[nH]3)cc2)cc1
-5.6*,-0.07*,O=C(Nc1ccccn1)c1cc(-c2cccc(Cl)c2)nc2ccccc12
i,-1,Cc1ccc(NC(=O)CCCNC(=O)c2ccc(Cl)cc2)c(Br)c1
i,-0.75,Cc1ccc(S(=O)(=O)N2CC(O)C[C@H]2C(=O)OCC(=O)Nc2ccc(N3CCCCC3)cc2)cc1C (stereo partly drawn)
i,1.8,C=CCN1C(=O)c2cccc3c(N4CCCCC4)ccc(c23)C1=O
i,-0.82,Cc1sc2ncnc(SCC#N)c2c1C
i,0.01,CCOC(=O)c1c(C)c(C(=O)NCc2cccnc2)c(C)n1C
i,-0.46,COc1ccc(CCNC(=O)CS(=O)(=O)Cc2nc(-c3ccc(C)cc3)oc2C)cc1OC
i,0.19,COc1cccc(NC(=O)CSc2nnc(Cc3ccc(C)cc3)c(=O)n2N)c1
i,-0.84,C=CCn1c(=NC(=O)c2ccccc2[N+](=O)[O-])sc2cc(S(C)(=O)=O)ccc21
i,-0.19,CCOC(=O)C1CCN(CC(=O)N2CCc3ccccc32)CC1
i,0.68,COc1ccc2c(c1)cc(C(O)c1ccccn1)n2S(=O)(=O)c1ccccc1 (stereo not drawn)
i,0.68,Cc1ccc(N/C(=C\C(=O)c2ccccc2)C(=O)O)cc1
i,-0.13,O=C1CN(C(=O)c2cc(F)cc(F)c2)c2ccccc2N1
i,0.4,O=C(c1ccccc1F)N1CCN(c2ccc([N+](=O)[O-])cc2-n2cccc2)CC1
i,-1.9,O=C(Nc1ccn(Cc2ccccc2)n1)c1cccc(Cn2cc([N+](=O)[O-])cn2)c1
i,0.03,CCN1CCN(C(=O)CS(=O)Cc2nc(-c3cccc(C)c3)oc2C)CC1 (stereo not drawn)
i,0.83,CCc1cccc(C)c1NC(=O)CSc1nnc(-c2cc3cc(Br)ccc3o2)n1CC
i,1.6,Cc1ccccc1CC1SC(N=C(N)N)=NC1=O (stereo not drawn)
i,2.6,Cc1cc(C(=O)Nc2ccccc2)oc(=O)c1
i,-1.4,C(=C\c1ccccc1)/CSc1nnc(-c2ccncc2)n1Cc1ccco1
i,0.02,O=C1N(C2CCCC2)C[C@@H]2C[C@@H](c3cn[nH]c3-c3ccc(Cl)cc3)N3CCC[C@@]123
i,-0.03,CSc1ccc(-c2sc(Nc3ccccc3)n[n+]2-c2ccccc2)cc1

Gathered by group: those above with an NH in an aromatic ring.
KCNQ2 block,KCNQ2 block baseline,structure
i,-2.2,Cc1c2cn[nH]c(=O)c2c(C)n1-c1ccccc1
i,-2.8,Cc1cccc2cc(CN(Cc3cccs3)Cc3nnnn3Cc3ccccc3)c(=O)[nH]c12
i,-0.22,COc1ccc(Oc2ccc(-c3ccn[nH]3)cc2)cc1
i,0.02,O=C1N(C2CCCC2)C[C@@H]2C[C@@H](c3cn[nH]c3-c3ccc(Cl)cc3)N3CCC[C@@]123

Next section
KCNQ2 block,KCNQ2 block baseline,structure
i,-0.54,Cc1cccc2cc(CN(CC3CCCO3)C(c3nnnn3Cc3ccco3)C(C)C)c(=O)[nH]c12 (stereo not drawn)
i,-0.27,O=C(Nc1ccc(F)c([N+](=O)[O-])c1)c1cccs1
i,2.1,COc1ccc(CC(=O)NC(C)(C)CC(C)=O)cc1OC
i,-1.9,COc1ccc(CC2(CO)CCN(Cc3cnc(-c4ccccc4C)nc3)CC2)cc1
i,-4.2,Cc1nc(N2CCN(C(=O)c3ccc(Cl)cc3)CC2)c(C#N)c2c1COC(C)(C)C2
i,-0.68,O=c1[nH]c(CN2CCN(c3ccccc3)CC2)nc2scc(-c3ccccc3)c12
i,2,Cc1ccc(C(=O)c2nc3c(n2O)CCCC3)cc1
i,0.81,CN1CCSc2ccc(C(=O)Nc3cccc(F)c3)cc21
i,-0.45,Fc1cccc(NCc2cn3ccccc3n2)c1
i,-1.6,COC(=O)c1ccccc1NC(=S)NC(C)=O
i,-0.26,Cc1c(C)c2c(OCC(=O)NCCCO)cc3c(c2oc1=O)CCC(C)(C)O3
i,-1.1,COc1ccc(NC(=O)CSc2nnc(C3CCCCC3)n2-c2ccccc2)cc1
i,-0.18,Cc1cccc(/C=C2\Sc3ccc(C(=O)NCC4CCCO4)cc3N(C)C2=O)c1 (stereo not drawn)
i,-0.45,Cc1ccccc1NC(=O)C1CCCN(c2ncnc3onc(-c4ccc(F)cc4)c23)C1 (stereo not drawn)
i,-0.86,O=C(C[n+]1ccc2ccccc2c1)c1cccc2ccccc12
i,-0.57,COC(CNc1ncnc2sc(-c3ccccc3)cc12)OC
i,2.4,COC(=O)c1sccc1NC(=O)c1cccc(Cl)c1
i,0.83,Cc1nn(-c2ccccc2Cl)c(Cl)c1/C=C(\C#N)C(N)=O
i,-0.24,CCOCCCn1c(=S)[nH]c2cc(C(=O)NCC(OC)OC)ccc2c1=O
i,1.9,COc1cc(OC)cc(C(=O)N2CCN(C3CCCCC3)CC2)c1
i,-1.2,Cc1cc(C(=O)N/N=C2/CC(C)CC(C)(C)C2)c(C)o1 (stereo not drawn)
i,0.72,CCCc1cc(=O)oc2c(CN3CCN(C)CC3)c(O)ccc12
i,-0.57,O=C(c1ccc(NS(=O)(=O)c2cccs2)cc1)N1CCN(c2ccccc2Cl)CC1
i,-0.48,Cc1ccc(/C=C/C(=O)N2CCN(S(=O)(=O)/C=C/c3ccccc3)CC2)o1
i,1.1,O=C(CSCc1ccc(Cl)cc1Cl)Nc1nccs1
i,2.1,COc1ccc(NC(=O)CS(=O)CC(=O)Nc2ccc(OC)c(OC)c2)cc1 (stereo not drawn)
i,-0.67,CCc1[nH]nc(C(=O)N2CCCC(C(=O)c3cccc(OC(C)C)c3)C2)c1C (stereo not drawn)
-9.1*,-2.2*,COc1cccc(-c2cc(C(=O)Nc3ccccc3)c3ccccc3n2)c1
i,1.9,COc1ccc(CCNC(=O)c2cccnc2)cc1OC
i,0.79,O=C(O)CCCC(=O)N1N=C(c2ccccc2)CC1c1ccc2nccnc2c1 (stereo not drawn)
i,2.3,CC1=NN(C(N)=S)C(C)(C)C1
i,1.6,C=CCn1c(O)c(N=Nc2ccccc2)c2ccccc21
i,3.4,O=C(COC(=O)c1ccc(S(=O)(=O)C(F)F)cc1)NC(=O)NC1CCCCC1
i,-0.06,CCC(C)(C)NC(=O)C(c1ccncc1)N(C(=O)Cn1nnc2ccccc21)c1cc2c(cc1C(C)=O)OCO2 (stereo not drawn)
i,0.55,Cc1cc(Br)c(S(=O)(=O)NCc2cccnc2)cc1C
i,1.3,O=C(NCc1cccs1)c1cc(-c2cccc(Cl)c2)on1

Two successive compounds out of the list so far, quoted:
KCNQ2 block,KCNQ2 block baseline,structure
i,0.55,Cc1cc(Br)c(S(=O)(=O)NCc2cccnc2)cc1C
i,1.3,O=C(NCc1cccs1)c1cc(-c2cccc(Cl)c2)on1

Later entries:
KCNQ2 block,KCNQ2 block baseline,structure
i,0.37,COCCCNC(=O)NC(=O)c1ccccc1
i,-0.29,COc1ccc(C(=O)C2CCCN(Cc3c(C)[nH]c4ccccc34)C2)c(OC)c1 (stereo not drawn)
i,-0.52,O=C1CSC(c2ccc([N+](=O)[O-])cc2)N1c1ccc(O)cc1 (stereo not drawn)
i,-1,Cc1ccc(OCC(=O)NCCCNC(=O)c2cccnc2)cc1
i,1.6,CS(=O)(=O)c1ccc(-c2nnn(CC(=O)Nc3ccc4c(c3)OCCO4)n2)cc1
i,0.13,CCOc1cc(/C=N/NS(=O)(=O)c2ccccc2)ccc1OS(=O)(=O)c1ccc(C)cc1
i,4,CC(=O)NN1C(=O)c2ccccc2NC1c1cccc([N+](=O)[O-])c1 (stereo not drawn)
i,-1.4,CSc1ccc(/C=C(\C#N)C(=O)NC2CCCCC2C)cc1 (stereo not drawn)
i,-0.4,CCOC(=O)N1CCN(CC(=O)c2c(C)[nH]c3ccccc23)CC1

Screening results: PubChem, Johns Hopkins Ion Channel Center
